Bioassay records as filed in PubChem.
GLA inh pH 4.5 = alpha-galactosidase A (human) inhibition, pH 4.5 | 230,000 tested, under 10 active | AID 1467 | purified enzyme, 4-MU-alpha-Gal fluorescence, pH 4.5 | activity change, negative = inhibition, % at 105 µM; inconclusive = small, poorly fitted or top-dose-only inhibition, or a rising curve; inactive = flat fitted curve, though single readings scatter; no compound was filed as active;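 further: 0% = full activity with enzyme and -100% = basal without enzyme; dose as in the result columns while the protocol names 77 µM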
Target sequence (P06280 whole entry, looked up): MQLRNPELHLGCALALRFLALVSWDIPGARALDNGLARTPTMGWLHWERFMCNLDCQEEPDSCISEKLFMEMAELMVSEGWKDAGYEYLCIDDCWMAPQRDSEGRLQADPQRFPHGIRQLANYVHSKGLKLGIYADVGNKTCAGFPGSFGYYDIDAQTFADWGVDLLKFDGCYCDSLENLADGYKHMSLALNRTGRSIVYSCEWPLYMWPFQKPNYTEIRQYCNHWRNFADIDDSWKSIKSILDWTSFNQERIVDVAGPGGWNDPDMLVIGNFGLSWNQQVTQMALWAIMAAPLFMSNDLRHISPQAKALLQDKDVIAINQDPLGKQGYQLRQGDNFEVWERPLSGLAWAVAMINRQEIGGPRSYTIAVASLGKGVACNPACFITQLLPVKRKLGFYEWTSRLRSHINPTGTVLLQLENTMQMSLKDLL
Rango dissoc inh = prevents RanGTP from dissociating the Rango-importin beta complex; O95149+P62826; Biochemical FRET Rango-importin beta, RanGTP-induced dissociation; Potency, µM (top dose mostly 46.1 µM), for inactives: top-dose activity change, negative = inhibition; 0.071% of 340,000 active; AID 540253; active means falling FRET ratio curve, often poorly fitted, with flat reads before Ran was added; inconclusive means other falling curves, or compound fluorescence or quenching; inactive means flat or rising ratio curve;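 further: potency means the concentration at half of the fitted maximal effect; % of control where 0% means no effect; nearly all actives have a fitted effect of over 45% in size; -100% = wells without RanGTP and RCC1; the record marks most hits as doubtful in a second field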
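Rango FRET biosensor (snurportin-1 IBB flanked by N-terminal EYFP and C-terminal CFP10) at 0.1 uM, with 0.25 uM importin beta in PBS, 1mM DTT, 0.02% Tween-20, 0.1% BSA. 0.6 uM Ran, 2mM GTP and 0.2 uM RCC1 were then added for 45 min at room temperature. Inhibition read as loss of FRET rise.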
miR-21 FLuc = miR-21 reporter, rising signal. HeLa miR-21 FLuc reporter, luciferase, 48 h. Potency, µM (top dose mostly 38.3 µM), for inactives: at the highest dose reporter change, positive = more light. 340,000 tested, under 10 active; active = well fitted rising curve with a large enough effect; inconclusive = small, poorly fitted or top-dose-only effect; inactive = no such curve, though single readings can be large or run the other way;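 further: % of control where 0% means no effect; miR-21 action dims this reporter so a rising signal means less miR-21 action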
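HeLa miR-21-FLuc reporter line, endogenous miR-21; 2000 cells/well in DMEM/10% FBS; compound titration up to ~40uM final, 48 h, 37 degree Celsius; luciferase detection reagent, 15 min lysis, CCD luminescence.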
Rango complex inh = prevents formation of the Rango-importin beta complex; Rango CFP/YFP FRET sensor + importin beta, 45 min; Potency, µM (doses to about 92.2 µM), without a hit: at the highest dose inhibition of complex formation; 0.031% of 340,000 active; active = rising FRET ratio curve, often small or poorly fitted; inconclusive = mostly compound fluorescence or quenching in the first reads; inactive = flat curves in all reads;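 further: potency means the concentration at half of the fitted maximal effect; 0% = DMSO wells and 100% = buffer wells lacking importin beta; nearly all actives have a fitted effect of over 15% in size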
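FRET biosensor (snurportin 1 IBB flanked by EYFP and cerulean), 50 nM, with compound 5 min, then 0.125 microM importin beta in PBS, 1 mM DTT, 0.02% Tween-20, 0.1% BSA. CFP/YFP ratio read after 45 min at room temperature; pre-read flags interference.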
Numbers without * were called inactive; ? = inconclusive; . = no result given; & = joins results of further samples. The list is partial (hit frequency here may not be typical).

SMILES	GLA inh pH 4.5	Rango dissoc inh	miR-21 FLuc	Rango complex inh
Oc1ccc(/C=N/N=C/c2ccc(O)cc2)cc1	2	0%	-17%	-0.5%
COC(=O)Cc1ccc(NC(=S)NCCC(C)C)cc1	-17	1%	-26%	-1.5%
COc1cccc(-c2csc(N3CCN(C(=S)Nc4cccc(C)c4)CC3)n2)c1	1	11%	-23%	?
CCC(C)C(Nc1ccc(C(=O)OC)cc1[N+](=O)[O-])C(=O)OC (centres undefined)	-4	0%	-3%	2.0%
Cc1cccc(NS(=O)(=O)c2cc(C(=O)NCCC3=CCCCC3)ccc2Cl)c1	3	5%	21%	-1.5%
CCN(CC)CCN(C)C(=O)c1ccc(OC2CCN(C(=O)C3CC3)CC2)cc1	0	-7%	-1%	?
Cc1ccc(O)c(NC(=O)C2=CC(c3ccco3)=NS(=O)(=O)N2C)c1	.	21%	-9%&5%	2.1%
CCC1C/C(=C\c2cccnc2)C(=O)/C(=C/c2cccnc2)C1 (centres undefined)	0	1%	?	-4.4%
c1ccc(C(c2nnnn2C2CCCC2)N2CCN(c3nc4ccccc4s3)CC2)cc1 (centres undefined)	-5	3%	-17%	-5.7%
Clc1ccc(OCc2nnc3n2N=C(c2ccc4c(c2)OCCO4)CS3)c(Cl)c1	-19	-4%	-22%	-0.3%
COC(=O)c1cccc(NC(=S)Nc2cc(Cl)ccc2OC)c1	-12	?	-13%	0.2%
Cc1ccc(C)c(S(=O)(=O)Nc2ccc(C(=O)NCC(c3ccco3)N(C)C)cc2)c1 (centres undefined)	.	-12%	.	2.6%
CSc1nnc(SCC#N)s1	-6	11%	4%	4.9%
CC1(C)C2CCC1(CS(=O)(=O)N1CCC(C(N)=O)CC1)C(=O)C2 (centres undefined)	.	?	-8%	-0.2%
CC(Cc1cccnc1)NC(=O)c1cc(COc2ccc(F)cc2Cl)on1 (centres undefined)	.	9%	-8%	?
Cc1ccc(N2C(=O)C3C4C=CC(CC4)C3C2=O)c([N+](=O)[O-])c1 (centres undefined)	.	4%	-4%	-3.9%
CCSc1nc(C2CC2)cc(-c2ccco2)c1C#N	1	3%	-5%	0.7%
O=C(N=C1SC2CS(=O)(=O)CC2N1Cc1ccccc1Cl)C1CCCO1 (centres undefined)	.	-17%	-4%	-2.8%
Cc1ccc(C(=O)Nc2ccc(Cl)cc2C(F)(F)F)c(Cl)c1	3	-3%	-60%	-0.2%
CCOC(=O)C1(CCc2ccccc2)CCN(Cc2ccc(OC)cc2)CC1	-6	11%	-1%	-4.0%

Among those listed so far, two contain a cyano group.
SMILES	GLA inh pH 4.5	Rango dissoc inh	miR-21 FLuc	Rango complex inh
CSc1nnc(SCC#N)s1	-6	11%	4%	4.9%
CCSc1nc(C2CC2)cc(-c2ccco2)c1C#N	1	3%	-5%	0.7%

More entries follow.
SMILES	GLA inh pH 4.5	Rango dissoc inh	miR-21 FLuc	Rango complex inh
Cc1ccc(-c2nc(NC(=O)CSc3nnc4scc(-c5ccccc5)n34)ns2)cc1	-8	-11%	-4%	0.5%
O=C(O)CC(SCC(=O)NC1CCCc2ccccc21)C(=O)O (centres undefined)	-1	-7%	-1%	3.8%
COc1ccc(OC)c(-n2nnnc2SCC(=O)Nc2ccccc2OC)c1	.	0%	12%	2.2%
COc1ccc(C)cc1NCc1cccc(OC)c1OC	0	-5%	-6%	5.0%
COc1ccc2c(c1)Sc1ccccc1N2CCN(C)C	0	15%	-8%	0.1%
CCSC(C)CC1C/C(=N/O)c2c(CC)noc2C1 (centres undefined)	-4	-13%	-6%	5.9%
COc1cc(OC)cc(-c2oc(=O)c3cc(OC)c(OC)cc3c2C#CCCO)c1	.	-8%	.	?
COc1ccc(OC)c(C(=O)CSc2nccc(-c3ccc(Br)cc3)n2)c1	5	-20%	-9%	6.4%
O=C(O/N=C/c1ccc(Br)cc1)c1ccc(F)cc1	.	1%	.	0.9%
Oc1cc(Br)ccc1C=Nc1ccc(N2CCCCC2)cc1	1	?	0%	7.8%
Cn1cnc(S(=O)(=O)Nc2ccc(OC(F)F)cc2)c1	6	-2%	-4%	-0.9%
CSc1ccccc1-c1nnc(-c2ccc(Cl)cc2)o1	-10	10%	-44%	1.2%
COC(=O)Cc1[nH]nc2c1C(c1c[nH]c3ccccc13)C(C#N)=C(N)O2 (centres undefined)	1	15%	-10%	0.5%
CCCN(Cc1ccccc1)C(=O)Nc1ccc2c(c1)nnn2C	1	-4%	-15%	2.6%
C[C@@H](C(=O)Nc1ccccc1N1CCOCC1)N1C(=O)C2CCCCC2C1=O (some centres undefined)	.	-1%	.	5.6%
O=C1CC(c2ccccc2)c2cc(O)ccc2O1 (centres undefined)	2	17%	-1%	-4.7%
Cc1ccccc1CS(=O)(=O)Cc1ccc(C(=O)NCC2CCCO2)o1 (centres undefined)	3	-3%	1%	-5.6%
O=C1CC(=C(c2ccccc2)c2ccccc2)C(=O)N1CCCN1CCN(c2cccc(Cl)c2)CC1	7	-9%	-6%	-1.6%
CCCCOc1ccc(NC(=O)CSc2nnnn2C)cc1	5	10%	-16%	-0.9%
CCn1c(/N=C/c2ccccc2O)nc2ccccc21	.	4%	0%	-1.2%
CC(=O)Nc1cccc(-c2nnc(-c3ccccc3)o2)c1	-7	1%	-41%	1.3%
Cc1[nH]n(-c2ccccc2)c(=O)c1C=Nc1ccc(S(=O)(=O)Nc2nccs2)cc1	-1	-5%	-3%	-2.3%
CCCC(=O)Nc1cccc(-c2cn3ccsc3n2)c1	-4	-13%	-39%	-1.1%
Cn1ncc(Cl)c1C(=O)N1CCN(c2ccccc2)CC1	.	-4%	1%	-2.8%
O=C(c1ccc(Oc2ccc(C(F)(F)F)cc2[N+](=O)[O-])cc1)N1CCOCC1	0	1%	11%	0.0%
OC(CSc1c(Cl)cccc1Cl)CN1CCN(c2ccc(F)cc2)CC1 (centres undefined)	-11	4%	-2%	0.5%
O=C(NCc1ccccc1)c1ccc(Cl)cc1[N+](=O)[O-]	6	-9%	-10%	5.3%
O=C(NCC1COc2ccccc2O1)c1ccc(Cl)c(S(=O)(=O)N2CCOCC2)c1 (centres undefined)	.	11%	.	-0.2%
CC1=C(C(=O)Nc2ccc(C)cc2C)C(c2ccc([N+](=O)[O-])cc2)n2ncnc2N1 (centres undefined)	-4	2%	1%	-3.9%
CCCOc1ccc(N2C(=O)CC(NCC(=O)OCC)C2=O)cc1 (centres undefined)	.	4%	.	2.4%
Cc1cccc(OCCOC(=O)c2c(-c3ccccc3)noc2C)c1	.	20%	17%	1.8%
CCN(CC)CCNC(=O)c1cc(Sc2nnc(C)s2)nc2ccccc12	3	-4%	-7%	0.6%
CC(C)(C)c1ccc(CS(=O)(=O)CC2(O)CCN(C(=O)c3cccc(C(F)(F)F)c3)CC2)cc1	-1	-3%	0%	0.6%
O=C(COC(=O)CCC1CCCCC1)Nc1ccc(OC(F)F)cc1	-6	1%	6%	-0.5%
NNc1nc(-c2ccccc2)cc(-c2ccc(Br)cc2)n1	.	-4%	7%	0.3%
OCCc1ccc(O)c(-n2nc3ccccc3n2)c1	.	11%	-52%	0.0%
COCCNC(=O)CSc1nccn1Cc1ccc2c(c1)OCO2	7	-1%	-3%	-2.4%
COCC(=O)Nc1c(C(=O)N2CCCC2)oc2ccccc12	.	-14%	-1%	?
COc1ccc(N2C(=O)CCC(C(=O)c3ccccc3)=C2C)cc1	2	-4%	2%	-0.5%
CN(C)CCNC(=O)c1ccc(-c2nn(C)c(=O)c3ccccc23)cc1	10	-11%	1%&0%	-2.5%

4 entries already listed, ordered by the value under Rango complex inh, lowest first.
SMILES	GLA inh pH 4.5	Rango dissoc inh	miR-21 FLuc	Rango complex inh
Cn1ncc(Cl)c1C(=O)N1CCN(c2ccccc2)CC1	.	-4%	1%	-2.8%
OCCc1ccc(O)c(-n2nc3ccccc3n2)c1	.	11%	-52%	0.0%
CCN(CC)CCNC(=O)c1cc(Sc2nnc(C)s2)nc2ccccc12	3	-4%	-7%	0.6%
CC(=O)Nc1cccc(-c2nnc(-c3ccccc3)o2)c1	-7	1%	-41%	1.3%

(more compounds)
SMILES	GLA inh pH 4.5	Rango dissoc inh	miR-21 FLuc	Rango complex inh
CCCN(Cc1nnc(-c2ccccc2Cl)o1)C(=O)c1oc2ccccc2c1C	.	12%	.	3.6%
Cc1ccc(C(=O)Nc2ccc(CN3CCCCC3)cc2)c(C)c1	2	27%	-1%	-4.1%
NC(=O)CC(NC(=O)Cc1ccc(Cl)cc1)c1ccc(NCCOc2ccccc2)c([N+](=O)[O-])c1 (centres undefined)	.	0%	-2%	-3.3%
COC(=O)CC1C(=O)NCCN1C(=O)c1ccc([N+](=O)[O-])cc1 (centres undefined)	.	-18%	-2%	0.4%
Cc1c2ccncc2cc2c1[nH]c1ccccc12	.	?	.	?
COc1ccccc1NC(=O)Nc1nc(CC(=O)Nc2ccc(N(C)C)cc2)cs1	.	14%	.	-1.1%
COC(=O)CSc1ncnc2c(C)csc12	4	-3%	2%	0.1%
COc1c(N)c2c(c([N+](=O)[O-])c1OC)C(=O)OC2	.	8%	.	-1.5%
CCCCCCCCCCCCN1C(=O)CSC1c1cccnc1 (centres undefined)	-8	17%	8%	-0.2%
COc1ccc2oc(C(=O)Nc3nc(C)cs3)c(C)c2c1	.	-8%	.	-2.1%
COc1ccc(CCn2c(=N)c(C(=O)NCc3ccco3)cc3c(=O)n4cccc(C)c4nc32)cc1	2	?	4%	?
Cc1ccc(NC(=O)CSCC(=O)NNC(=O)c2ccoc2C)cc1	.	-6%	.	-2.1%
C[C@H](NS(=O)(=O)c1ccc(Cl)cc1)C(=O)OCC(=O)NCCc1ccc(S(N)(=O)=O)cc1	.	-5%	.	-4.3%
O=C(CCC(=O)c1ccc(Br)cc1)Nc1ccc(F)cc1	.	-2%	-6%	-0.1%
Cn1c(Cn2c(=O)sc3ccccc32)nnc1SCC(=O)N1CCN(c2ccccc2)CC1	2	10%	1%	0.2%
Cc1cc(/C=C2/NC(=O)N(Cc3ccccc3F)C2=O)c(C)n1C	-13	-4%	-11%	?
O=C(COc1cc2oc(=O)c3c(c2cc1Cl)CCC3)NCCCn1ccnc1	.	2%	-8%	-0.5%
CC(C)c1ccc(NC(=O)[C@H](Cc2c[nH]c3ccccc23)NC(=O)[C@@H]2Cc3ccccc3CN2)cc1	.	-27%	10%	-2.7%
CCCN1CCC(=O)N([C@H](COc2ccccc2)c2ccccc2)CC1	.	-24%	-5%	?
O=C(O)C1=C[C@@H](c2csc3ccccc23)C[C@@H](OCc2ccc(CO)cc2)O1	-9	-15%	-3%	-1.0%
CCOc1ccc(NCc2nnc(SCc3ccc(Cl)cc3)n2-c2ccccc2)cc1	-9	0%	14%	0.1%
COc1ccc(CCNc2oc(-c3ccccc3OC)nc2C#N)cc1OC	-10	0%	-5%	5.2%
COc1ccc(CCNC(=O)CN(Cc2ccc(Cl)cc2)S(C)(=O)=O)cc1	.	0%	9%	-3.0%
Cc1cc(C(=O)NCc2cc(C)n(C)n2)sc1-c1ccccc1	-6	0%	-4%	-0.9%
Fc1cc(Cl)ccc1NC1=NCCCCC1	.	0%	0%	0.5%
CCc1cc2cc(C(=O)Nc3ccccc3F)sc2s1	4	5%	-48%	0.0%
Cc1[nH]n(C2=NCCS2)c(=O)c1N=Nc1ccccc1	-5	11%	-12%	-1.1%
COc1ccc(-c2cc(C(=O)Nc3cc(C)nn3-c3ccccc3)no2)cc1	1	3%	-26%	0.3%
O=[N+]([O-])c1ccc(C[n+]2cccc(O)c2)cc1	.	-13%	.	-1.2%
CCOc1cc(C(=O)Nc2nnc(C)s2)cc(OCC)c1OCC	7	-3%	1%	-0.9%
Cc1ccc(S(=O)(=O)Nc2ccc3c(c2)C(=O)N([C@H](C)CO)C[C@H](C)[C@@H](CN(C)Cc2ccc(-c4ccccc4)cc2)O3)cc1	.	-3%	.	-5.8%
COC(=O)c1ccc(-c2csc(NC(=O)c3c(C)noc3C)n2)cc1	.	0%	.	?
